RE007 growth inh: qHTS Assay for Inhibitors of the HIV-1 protein Vpr; S. pombe RE007 Vpr strain, BacTiter-Glo ATP luminescence, 24 h; control for the full effect not named in the record; Potency, µM (series often up to 92.2 µM), inactives show at the highest dose activity change, negative = less growth; 360,000 tested, 0.21% active; active = well fitted falling curve with a large enough effect; inconclusive = small, poorly fitted or top-dose-only effect; inactive = no such curve, though single readings can be large or run the other way;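 note: % is set by controls: 0 for no effect and ±100 for the full control effect; nearly all actives have a fitted effect of over 50% in size; the assay follows cell death caused by Vpr and the record does not say whether a fall means rescue or toxicity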
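Fission yeast strain RE007, carrying one chromosomally integrated HIV-1 vpr copy, was seeded at OD 0.01 in PMG+AL medium with 23 nL pinned compound. After 24 h at 30 °C and 99% humidity, viability was read by BacTiter-Glo luminescence.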
NS1 inh: qHTS Assay for Inhibitors of Influenza NS1 Protein Function | S. cerevisiae slowed by influenza A NS1, growth recovery by OD600 | Potency, µM (top dose mostly 46.1 µM), without a hit: at the highest dose activity, positive = more growth | 270,000 tested, 0.4% active | AID 2326, 2010; note: actives are rising curves; nearly all actives have a fitted effect of over 50% in size
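Compounds were scored for reversing the slow growth caused by influenza A NS1 in S. cerevisiae, measured by optical density at 600 nm. Assay medium contained 2% galactose at pH 6.0; NS1-free yeast of the same strain were the positive control.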
MARV entry inh: qHTS for inhibitors of binding or entry into cells for Marburg Virus. 300,000 tested, 1.8% active. Potency, µM (top dose mostly 37.8 µM), for inactives: at the top dose activity change, negative = inhibition, usual class: inhibitors. Marburg virus pseudotyped entry inhibition, cell reporter; control for the full effect not named in the record; about a third of the inactives were read at about 46 µM; active = well fitted inhibition curve with a large enough effect; inconclusive = small, poorly fitted or top-dose-only effect, or effect the other way; inactive = flat fitted curve, though single readings scatter; tested in HEK293 cells; about a fifth of its hits are not listed in these tables; note: % is set by controls: 0 for no effect and ±100 for the full control effect; luciferase read-out
Cruzain Triton: qHTS Assay for Promiscuous and Specific Inhibitors of Cruzain (with detergent); Potency, µM, for the others: max response, negative = inhibition, most hits filed as inhibitors; purified cruzain, Z-FR-AMC fluorescence, 0.01% Triton; 200,000 tested, 0.43% active; active = well fitted curve in the direction sought with a large enough effect; inconclusive = small, poorly fitted or top-dose-only effect, or another doubt; inactive = no such curve, though single readings can be large; an effect the other way counts as inactive or inconclusive;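 note: plate controls were neutral wells for no effect and buffer without enzyme for full effect; nearly all actives have a fitted effect of over 40% in size; top concentration of the series not given in the record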
Target sequence (P25779 123-467 limits assumed): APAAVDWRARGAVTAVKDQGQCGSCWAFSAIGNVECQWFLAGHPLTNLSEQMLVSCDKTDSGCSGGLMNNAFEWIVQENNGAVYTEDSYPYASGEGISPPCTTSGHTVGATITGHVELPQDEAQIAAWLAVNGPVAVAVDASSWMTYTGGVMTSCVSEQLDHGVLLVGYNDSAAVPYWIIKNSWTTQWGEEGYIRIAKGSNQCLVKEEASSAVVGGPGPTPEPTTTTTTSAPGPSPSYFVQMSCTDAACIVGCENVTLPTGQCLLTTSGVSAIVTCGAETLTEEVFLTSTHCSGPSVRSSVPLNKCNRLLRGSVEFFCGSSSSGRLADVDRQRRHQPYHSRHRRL
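Cruzain (1.5 nM) preincubated 15 min at RT with compound in 100 mM sodium acetate pH 5.5, 5 mM DTT, 0.01% Triton X-100. Reaction started with 2 uM Z-FR-AMC; AMC fluorescence (ex 360/em 450 nm) change over 60 s gave rate.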
StopGo reporter: High Throughput Screening for Foot and Mouth Disease Virus Antivirals. human cells with a luciferase reporter of 2A StopGo recoding; control for the full effect not named in the record. Potency, µM (highest dose often 57.9 µM), inactives show at the top dose signal change, negative = less light. 410,000 tested, 1.2% active. AID 1159524, 2015; active = well fitted falling curve with a large enough effect; inconclusive = small, poorly fitted or top-dose-only effect; inactive = no such curve, though single readings can be large or run the other way; tested in HEK293T cells; note: % is set by controls: 0 for no effect and ±100 for the full control effect; nearly all actives have a fitted effect of over 45% in size; luciferase light after 4 h
Cruzain inh noDet: qHTS Assay for Promiscuous and Specific Inhibitors of Cruzain (without detergent); Cruzipain (Trypanosoma cruzi), P25779; 200,000 tested, 2.3% active; Potency, µM, for inactives: max response, negative = inhibition, usual class: inhibitors; purified cruzain, Z-FR-AMC fluorescence, no detergent; active = well fitted curve in the direction sought with a large enough effect; inconclusive = small, poorly fitted or top-dose-only effect, or another doubt; inactive = no such curve, though single readings can be large; an effect the other way counts as inactive or inconclusive;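 note: plate controls were enzyme without inhibitor for no effect and buffer without enzyme for full effect; nearly all actives have a fitted effect of over 40% in size; top concentration of the series not given in the record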
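Purified cruzain at 1.5 nM, pre-incubated 15 min with compound at room temperature in 100 mM sodium acetate pH 5.5, 5 mM DTT, 0.00005% Triton X-100. Reaction started with 2 uM Z-FR-AMC; AMC fluorescence increase over 60 s gives rate.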
SARS PLpro yeast: qHTS of Yeast-based Assay for SARS-CoV PLP. S. cerevisiae expressing SARS-CoV PLpro, growth rescue; control for the full effect not named in the record. Potency, µM (titrated, usually from 32.9 µM), for the others: top-dose activity, positive = growth rescue. 330,000 tested, 0.19% active. AID 485353, 2010; note: 0% is about no effect; nearly all actives have a fitted effect of over 55% in size; growth read by luminescence after 48 h
Lassa entry inh: qHTS for Inhibitors of binding or entry into cells for Lassa Virus; 300,000 tested, 1.2% active; Potency, µM (top dose mostly 37.9 µM), for inactives: at the top dose activity change, negative = inhibition, usual class: inhibitors; Lassa virus pseudotype entry inhibition, cell reporter; control for the full effect not named in the record; active means well fitted inhibition curve with a large enough effect; inconclusive means small, poorly fitted or top-dose-only effect, or effect the other way; inactive means flat fitted curve, though single readings scatter; tested in HEK293 cells; note: % is set by controls: 0 for no effect and ±100 for the full control effect; nearly all actives have a fitted effect of over 50% in size; luciferase read-out
Active calls of the source: *; u = inconclusive; x = no result given; & = joins results of further samples; [ ] = remark or other dose. Unless noted, calls come from the whole dose curve; as a rule, active means well fitted rising curve with a large enough effect; inconclusive means small, poorly fitted or top-dose-only effect; inactive means no such curve, though single readings can be large or run the other way. Potency is the fitted concentration of half-maximal effect.

SMILES	RE007 growth inh	NS1 inh	MARV entry inh	Cruzain Triton	StopGo reporter	Cruzain inh noDet	SARS PLpro yeast	Lassa entry inh
Cc1cc(C)n(-c2nc(C(F)(F)F)nc3ccccc23)n1	11%	x	-2%[46.1 µM]	x	-4%	x	0%	15%
Cc1cccc(OCCCC(=O)Nc2ccc(S(=O)(=O)Nc3onc(C)c3C)cc2)c1	4%	-68%	12%	-3.4%	-11%	18%	6%	6%
CCc1c(C)nc(N)n2c(SCC(=O)Nc3ccccc3)nnc12	12%	8%	u	0.4%	0%	-7%	1%	0%
O=C(/C=C/c1ccccc1)CC(=O)c1ccccc1O	-4%	5%	-6%	x	24%	x	0%	18%
COc1cc2c(cc1OC)C(C(=O)NCc1cccnc1)C(c1cccnc1)N(C)C2=O (configuration not stated)	0%	1%	3%&3%[46.1 µM]	4.9%	8%	2%	7%	u
CN(CC(=O)N1CCN(c2ccccc2F)CC1)S(=O)(=O)c1cnc[nH]1	-8%	9%	10%	4.1%	x	6%	-4%	-13%
CCCOc1ccc(C(=O)Nc2ccccc2[N+](=O)[O-])cc1	-19%	x	-4%[46.1 µM]	x	61%[activator]	x	x	u
CSc1cccc(NC(=O)COc2cccc3ccccc23)c1	-1%	2%	25%	-1.8%	x	14%	-6%	-14%
CCCCCC(C)n1[nH]c(=O)cc1N (configuration not stated)	2%	24%	8%	-0.8%	-9%	2%	u	-1%
Cn1c(CNC(=O)CNC(=O)c2ccccc2)cc(=O)n(C)c1=O	6%	7%	x	x	21%	x	-3%	x
O=C(NNS(=O)(=O)c1ccccc1[N+](=O)[O-])c1ccncc1	-4%	6%	9%	0.1%	-5%	17%	3%	-6%
CN(C)S(=O)(=O)c1ccc(N/C=C(\[N+](=O)[O-])S(=O)(=O)c2ccccc2)cc1	-4%	5%	u	x	20%	x	2%	-7%
COc1ccc(Nc2nc(N3CCCCC3)c3ccccc3n2)cc1	-8%	-207%	u	-20%	25µM*	-13%	-15%	u
O=C(NCC1CCCO1)c1cccc2ccccc12 (configuration not stated)	-10%	14%	6%[46.1 µM]	x	0%	x	3%	-1%
Cc1nnc(NC(=O)Cc2cccs2)s1	3%	-1%	7%	2.3%	13%	-6%	-8%	-7%
CCOC(=O)c1cc([N+](=O)[O-])sc1NC(=O)c1ccc(S(=O)(=O)N2CC3(C)CC2CC(C)(C)C3)cc1 (configuration not stated)	6%	-2%	u	-2.5%	u	4µM*	2%	u
COc1ccc(NC(=O)/C(C#N)=C\c2cc(C)n(-c3ccc(Oc4ccc([N+](=O)[O-])cn4)cc3)c2C)cc1	-11%	0%	-8%	1.5%	-29%	7.9µM*	10%	-1%
O=C(NCCCN1CCCCC1)c1ccc(CS(=O)c2ccc(Cl)cc2)o1 (configuration not stated)	-7%	6%	u	x	-16%	x	3%	8%[46.1 µM]
CCn1c(SCC(=O)OC(C)C)nnc1-c1ccccc1	5%	4%	2%[46.1 µM]	x	6%	x	-1%	-13%
COc1ccc(C)cc1NC(=O)C(CCSC)NS(=O)(=O)c1ccc2c(c1)oc(=O)n2C (configuration not stated)	x	x	x	2.3%	0%	0%	x	4%[46.1 µM]
Cc1ccc(C)c(SCC(=O)Nc2cc(S(=O)(=O)N3CCOCC3)ccc2C)c1	-3%	x	3%	x	-9%	x	-1%	11%
O=C(NNc1cccc(Cl)n1)Nc1ccc(F)cc1	1%	x	0%[46.1 µM]	x	10%	x	0%	-7%[46.1 µM]
C[C@@H](C(=O)Nc1ccc2ccccc2c1)[C@H]1C[C@]1(C)[C@H](NP(=O)(c1ccccc1)c1ccccc1)c1ccccc1	x	u	u	-1.6%&-6.4%	x	u	5%	u
Cc1ccc2c(C)c(C(=O)N(Cc3ccc(Cl)cc3)C3CCS(=O)(=O)C3)oc2c1 (configuration not stated)	x	x	-23%[46.1 µM]	-7.6%	-14%	28%	x	-29%[46.1 µM]
CC(C)Cc1cc(C(=O)Nc2sc3c(c2C#N)CCCC3)no1	-1%	-21%	9%	-2.6%	6%	6%	-18%	-1%
COc1ccc(NC(=O)Nc2sc3nc4n(c(=O)c3c2C)CCC(C)CC4)cc1OC (configuration not stated)	x	x	1%[46.1 µM]	-2.5%	-15%	u	x	x
Cc1nn(CCCNC(=O)C2CCCO2)cc1Br (configuration not stated)	-2%	-12%	u	1.6%	16%	-15%	u	13%
O=C(NCCSCc1ccc(Cl)cc1Cl)c1ccc(CN2CCOCC2)cc1	-10%	-11%	u	-2.3%	u	13%	-12%	u
Clc1ccc(Nc2ncnc3ccc(Br)cc23)cc1	-27%	-151%	u	-5.7%	x	3%	-33%	-23%
Cc1ccc(CNC(=O)CSc2ncccn2)cc1	-15%	0%	21%	1.1%	53%[activator]	-10%	6%	u
COc1ccc(S(=O)(=O)N2CC3CCCN3c3ccc(C(F)(F)F)cc32)cc1 (configuration not stated)	-1%	21%	u	-3.8%	1%	-15%	0%	u
COc1ccc(/C=C/C(=O)NC(=S)Nc2ccc(Br)cn2)cc1	9%	6%	17%[46.1 µM]	x	-1%	x	-1%	-9%[46.1 µM]
CC(/C=N/NC(=O)CCn1nnc2ccccc21)=C\c1ccccc1	-14%	-11%	-3%[46.1 µM]	-7.0%	-13%	-2%	-7%	4%
CCOC(=O)c1c(C)oc2c1c(CN1CCN(CCO)CC1)c(O)c1ccccc12	-10%	x	u	x	-31%	x	-16%	11%
COc1ccc(CC(C)Nc2ccccc2F)cc1 (configuration not stated)	6%	4%	0%	x	1%	x	0%	13%
COc1ccc(OC)c(Nc2ncnc3c2cnn3-c2ccccc2)c1	12%	-45%	12%	-2.9%	x	1%	1%	-10%
NC(c1ccccc1)c1cccnc1 (configuration not stated)	9%	2%	12%[46.1 µM]	x	-8%	x	2%	-11%[46.1 µM]
CCOc1ccc(CNC(=O)Cn2cc3c(n2)-c2c(oc(C(=O)N4CCCC4)c2C)CC3)cc1	x	x	x	-3.1%	u	23%	x	u
O=C(CCn1cnnn1)Nc1cc(C(F)(F)F)cc(C(F)(F)F)c1	x	x	-27%[46.1 µM]	-7.5%	-24%	-1%	x	-28%[46.1 µM]
COc1ccc(CCn2c(-c3ccncc3)n[nH]c2=S)cc1OC	1%	12%	-2%[14.2 µM]	x	0%	x	0%	-12%
CN(C)CCNC(=O)c1cc2ccccc2oc1=O	9%	-10%	-16%&-16%	-1.1%	-24%	-18%	-5%	0%
Cc1ccccc1N(C)C(=O)c1noc2c1COc1ccccc1-2	x	x	0%[46.1 µM]	-4.0%	4%	12%	x	1%[46.1 µM]
Cc1cc(Nc2ccc(F)c(Cl)c2)n2ncnc2n1	-6%	4%	-3%	-4.8%	9%	-6%	10%	x
CCOc1ccc(NC(=O)CCN2C(=S)NC(C)(C)CC2C)cc1 (configuration not stated)	7%	x	1%	x	18%	x	10%	-12%
O=C1CCC(c2ccc3ccccc3c2)O1 (configuration not stated)	-2%	x	29%[46.1 µM]	x	6%	x	x	-12%[46.1 µM]
COC(=O)c1ccc(C2NC(=O)c3ccccc3O2)cc1 (configuration not stated)	5%	3%	1%[46.1 µM]	x	18%	x	-1%	0%[46.1 µM]
COc1cc(C(=O)N2CCN(c3ccccc3)CC2)c([N+](=O)[O-])cc1OC	16%	1%	2%[46.1 µM]	x	-16%	x	2%	-5%[46.1 µM]
COc1ccc(-c2nc(-c3cccc(C)c3)nc(Cl)c2C#N)cc1	x	-5%	8%	-1.9%	x	u	-4%	x
COc1ccccc1NC(=O)c1ccc2c(c1)CCN2S(C)(=O)=O	-1%	-8%	1%	x	-5%	x	4%	-27%
CC(C)(C)OC(=O)N/N=C/c1cccn1-c1ccc([N+](=O)[O-])cc1	-8%	4%	-7%[46.1 µM]	x	-29%	x	-1%	3%
O=C(COc1ccc(Cl)cc1)NCCCNC(=O)c1cccnc1	-5%	-2%	5%[46.1 µM]	x	0%	x	0%	u
Cc1cc(F)ccc1S(=O)(=O)N1CCCOC1CNC(=O)C(=O)NCCCN1CCOCC1 (configuration not stated)	-6%	4%	-1%	x	-15%	x	-3%	u
Cc1cc(C(=O)OCC(=O)c2cccs2)c2ccccc2n1	3%	0%	1%[46.1 µM]	x	12%	x	2%	17%[46.1 µM]
Nc1nc(Cl)nc2c1ncn2[C@@H]1O[C@H](CO)[C@@H](O)[C@H]1O	1%	-3%	-16%&-40%	0.5%&3.4%	u	-9%&-13%	0%	u
COc1ccccc1C(=O)Nc1nc2cc3c(cc2s1)OCCO3	-19%	8%	x	x	11%	x	-1%	x
O=C(c1cccnc1)c1cc2ccccc2[nH]1	-10%	-14%	11%	-7.3%	3%	0%	6%	-2%
CCCCC(=O)NC(=S)NNC(=O)CC	4%	1%	11%	-1.8%	3%	1%	24%	20%
Cc1ncoc1C(=O)NCCC(c1ccccc1)c1ccccc1	11%	x	-29%[46.1 µM]	x	u	x	-1%	u
COc1ccc(-c2nnc(SCCc3ccccc3)n2N)cc1	30%	-19%	20%	3.5%	12%	5%	-3%	12%
COc1cc(/C=C/c2nc3cc(Cl)ccc3c(=O)n2-c2cccc(C(F)(F)F)c2)cc(OC)c1OC	x	x	x	0.1%	u	5%	x	-1%[46.1 µM]
CCCCc1nc2cc(C(=O)N3CCN(c4cnccn4)CC3)ccc2o1	-7%	1%	u	x	6%	x	22%	u
CCN(CCNC(=O)CN1CCN(Cc2ccc(Cl)cc2)C1=O)c1ccccc1	21%	-37%	-3%	0.6%	u	u	0%	u
Nc1nnc(Sc2ncccc2[N+](=O)[O-])s1	-3%	x	u	x	-13%	x	-3%	-17%

Screening results from PubChem.
